Screens from PubChem.
TAR Tat displ: HIV-1 TAR-Tat binding disruption | HIV-1 TAR RNA, Tat peptide displacement FRET; active compounds read high | z-score (concentration not given with the values) | 100,000 tested, 0.6% active | AID 1259389;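 further: score is relative to mean and SD of negative controls; some compounds called inactive have numbers as strong as hits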
CDC25B CDK2 inh: human CDC25B-CDK2/CyclinA binding inhibition; P30305+P24941; HTRF CDC25B-CDK2/CyclinA binding, anti-His/anti-Flag; active compounds read high; z-score (test concentration not listed); 94,000 tested, 0.72% active; AID 1259370;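 further: score is relative to mean and SD of negative controls; strong numbers were not always called active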
* = called active by the depositor; · = not tested or not shown.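 How the source made its calls: active means z-score from 3 up in half or more of its runs; inactive means the rest.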

Structure	CDC25B CDK2 inh	TAR Tat displ
O=C(CSc1ccc2nnc(-c3ccc(Cl)cc3)n2n1)Nc1nccs1	-1.1	·
COc1ccc(OC)c(NC(=O)C2=Cc3sc(C)c(C)c3CS2)c1	·	-3
CCOC(=O)CN1C(=O)CC2c3cc(OC)c(OC)cc3CCN2C1=O (centres undefined)	·	2.4
CCC1NCc2c(sc3c2CCCC3)-n2cccc21 (centres undefined)	3	-0.3
Cc1ccc(S(=O)(=O)NCCc2sc(-c3ccc(F)cc3)nc2C)cc1C	·	1.9
Cc1cc(NCn2ncc3ccccc3c2=O)ccc1Br	-0.87	·
O=C(CCC(=O)N1CCOc2ccc(Cl)cc21)NCCN1CCOCC1	-0.51	-0.31
Nc1c(C(=O)NCc2ccc3c(c2)OCO3)nnn1Cc1ccc(Br)cc1	0.28	-0.81
O=C(Nc1ccc(Br)cc1F)C1=CCN(S(=O)(=O)c2ccc(F)cc2)CC1	-1.2	-1.5
Cc1c(-c2nnnn2-c2ccccc2)cnc2ccccc12	-2	·
COc1ccc(NC(=O)CCc2nnc3ccc(NCc4ccco4)nn23)cc1OC	·	-0.83
CC(NC(=O)OCC1c2ccccc2-c2ccccc21)C(=O)O (centres undefined)	-0.95	·
COc1ccc(N2C(=O)c3cccnc3C2Nc2ccccc2OC)cc1 (centres undefined)	·	0.9
COc1ccc(-c2nc3c4cnn(-c5ccccc5)c4ncn3n2)cc1OC	-0.16	-1.5
COC(=O)c1cc(S(=O)(=O)NCc2ccc(Br)cc2)cn1C	·	1.1
Cn1nnc2c(NC(c3ccccc3)c3ccccc3)ncnc21	·	2
CC(C)c1ccc(NS(=O)(=O)c2ccc(-n3cccn3)cc2)cc1	·	0.49
CN1C(=O)CSc2ccc(NC(=O)NCc3ccco3)cc21	2.5	-0.95
COc1ccc(OC)c(CNC(c2nnc(-c3ccccc3)o2)c2ccccc2F)c1 (centres undefined)	·	0.32
CN(CC(=O)NC1CCCC1)S(=O)(=O)c1ccc2c(c1)CCCC(=O)N2	·	0.75
CC1(C)C(=O)Nc2ccc(S(=O)(=O)N3CCN(c4ccc(Cl)cc4)CC3)cc21	·	0.19
O=C(CSc1nc2ncccc2o1)NC(c1ccccc1)c1ccccc1	·	1.7
CCOc1ccc(-c2noc(-c3nnn(-c4cccc(C)c4)c3N)n2)cc1	·	0.36
Cc1cc([N+](=O)[O-])nn1CC(=O)Nc1ccc2c(c1)OCO2	-1.5	-0.12
Cc1cc(C)n2cc(CSc3nncc(-c4ccccc4)n3)nc2n1	·	0.48
CCOC(=O)c1cnc(O/N=C(\N)c2ccc(C(F)(F)F)cc2)nc1C(F)(F)F	-1.2	·
O=C(CSc1nc2c(c(=O)n1Cc1ccccc1)SCC2)N1CCc2ccccc21	·	1.1
Cc1nn(C(C)(C)C)c(OC(=O)C(C)Oc2ccccc2)c1S(=O)(=O)c1ccccc1 (centres undefined)	-1.8	·
Cc1cccc(C)c1NC1=NC(C)(C)N=C(N)N1	0.48	·
CCn1c(SCCOc2ccc(OC)cc2)nc2ccccc21	-1.2	1
Nc1c(C(=O)NCc2ccc3c(c2)OCO3)nnn1Cc1cccc(Br)c1	-0.87	0.87
Clc1ccc(Cc2noc(-c3ccco3)n2)cc1	1.6	-0.15

Five entries picked at random from the list so far, as already listed:
Structure	CDC25B CDK2 inh	TAR Tat displ
CCOC(=O)c1cnc(O/N=C(\N)c2ccc(C(F)(F)F)cc2)nc1C(F)(F)F	-1.2	·
Clc1ccc(Cc2noc(-c3ccco3)n2)cc1	1.6	-0.15
Cc1cc(C)n2cc(CSc3nncc(-c4ccccc4)n3)nc2n1	·	0.48
Nc1c(C(=O)NCc2ccc3c(c2)OCO3)nnn1Cc1cccc(Br)c1	-0.87	0.87
CCn1c(SCCOc2ccc(OC)cc2)nc2ccccc21	-1.2	1

(list continues)
Structure	CDC25B CDK2 inh	TAR Tat displ
Cc1cc(C)cc(NC(=O)N2CC3CCCN3c3ccccc32)c1 (centres undefined)	5.7	-1.2
CC(C)(C)c1cc(O)cc(C(C)(C)C)c1	·	2.5
COc1ccc(CNC(=O)Nc2cccc(SC)c2)cc1	-0.59	·
Cc1nn(C)c(C)c1S(=O)(=O)N1CCC(c2c(C)n(Cc3cccc(F)c3)c3ccccc23)CC1	·	0.23
Cc1ccc(C)c(OCc2nc(-c3ccc(Br)cc3)no2)c1	-2.1	·
CCC(=O)N1CCc2cc(Br)cc(S(=O)(=O)N3CCCC3c3ccco3)c21 (centres undefined)	-0.08	0.49
O=c1c2nnn(Cc3ccccc3F)c2ncn1C/C=C/c1ccccc1	-0.47	2.3
COc1cc(Cl)ccc1N/N=C(\C#N)C(N)=O	-0.57	·
Cc1ccc(C(=O)COC(=O)c2ccc3c(c2)-c2ccccc2C3=O)cc1C	-2	·
O=c1nc(N2CCCCC2)nc2n1CCO2	-0.88	1.2
COc1ccc(CCNC(=O)CC(=O)N/N=C/c2ccco2)cc1OC	-0.35	·
CCCc1cc(=O)n2[nH]cc(-c3ccc(Cl)cc3)c2n1	0.07	1.2
O=c1c(Cl)c(-n2cccn2)cnn1-c1ccc(Cl)cc1Cl	-0.68	·
Cc1ccc2cc3c(N)nn(C(=O)c4ccncc4)c3nc2c1	-2.5	1.1
O=C(CSc1nc(-c2ccccc2F)nc2cc(=O)[nH]n12)N1CCCc2ccccc21	·	-1.8
CCCOCCOC(=O)C1=C(C)NC2=C(C(=O)CC(C)(C)C2)C1c1ccsc1 (centres undefined)	-2.5	0.65
O=C(c1cnc2ccccc2n1)N1CCC(O)(c2ccc(Cl)cc2)CC1	11	·
Cc1cccc(NS(=O)(=O)c2cc(Br)cnc2N)c1C	-1.3	0.98
COCCNc1nc(-c2ccc(OC)cc2)no1	·	0.07
Cc1oc(-c2cccc(Cl)c2)nc1CN	·	2.8
O=C(Nc1nnc(S(=O)(=O)N2CCN(c3ccc(F)cc3)CC2)s1)c1ccco1	-0.12	1.6
COC(=O)c1ccc2[nH]c3c(c2c1)CCCC3	-3	·
Cc1cc([N+](=O)[O-])nn1Cc1cccc(C(=O)O)c1	0.3	4.2
O=S(=O)(c1ccc(Cl)cc1)N1CCC(c2ccncc2)CC1	·	0.52
CCc1ccc2[nH]c(C(=O)NCCN3CCCCC3)cc2c1	-1.1	·
CC(C)C(=O)NC(C)C(c1cccs1)N1CCOCC1 (centres undefined)	-0.03	·
O=C(c1ccc(N2CCc3ccccc32)s1)N1CCN(c2ccccc2)CC1	·	-1.3
O=C(C1CCN(S(=O)(=O)c2cccs2)CC1)N1CCN(c2ccccc2Cl)CC1	-0.01	·
COc1ccc2[nH]c3c(c2c1)CCNC3c1cccc(O)c1 (centres undefined)	-2.1	0.8
Cc1[nH]c2ccccc2c1C(=O)CSc1nc2ccccc2[nH]1	1.8	1.1
O=C1c2[nH]nc(-c3ccccc3O)c2C(c2ccc(Br)cc2)N1Cc1ccco1 (centres undefined)	-0.08	1.1
c1ccc(C(Cc2nc(-c3ccncc3)no2)c2ccccc2)cc1	-1.6	-0.93

In the list so far, these contain a furan ring, fused or not:
Structure	CDC25B CDK2 inh	TAR Tat displ
COc1ccc(NC(=O)CCc2nnc3ccc(NCc4ccco4)nn23)cc1OC	·	-0.83
CN1C(=O)CSc2ccc(NC(=O)NCc3ccco3)cc21	2.5	-0.95
Clc1ccc(Cc2noc(-c3ccco3)n2)cc1	1.6	-0.15
CCC(=O)N1CCc2cc(Br)cc(S(=O)(=O)N3CCCC3c3ccco3)c21 (centres undefined)	-0.08	0.49
COc1ccc(CCNC(=O)CC(=O)N/N=C/c2ccco2)cc1OC	-0.35	·
O=C(Nc1nnc(S(=O)(=O)N2CCN(c3ccc(F)cc3)CC2)s1)c1ccco1	-0.12	1.6
O=C1c2[nH]nc(-c3ccccc3O)c2C(c2ccc(Br)cc2)N1Cc1ccco1 (centres undefined)	-0.08	1.1

(list continues)
Structure	CDC25B CDK2 inh	TAR Tat displ
O=[N+]([O-])c1ccc(CSc2ncnc3c2ncn3[C@@H]2O[C@H](CO)[C@H](O)C2O)cc1 (some centres undefined)	-1.9	·
Cc1ccsc1/C=C/C(=O)O/N=C(\N)c1ccc(C(F)(F)F)cc1	-0.55	·
CC(=O)N1c2ccc(S(=O)(=O)N3CCCC3)cc2CC1C(=O)NCCc1c(C)noc1C (centres undefined)	·	1.2
OC(CN1C2=NCCN2c2ccccc21)c1ccccc1 (centres undefined)	-0.97	0.75
COC(=O)CN1c2ccccc2NC2=C(C(=O)CC(C)(C)C2)C1c1cccs1 (centres undefined)	0.71	0.23
CC(C)(C)c1cc(C(=O)/C=C2/NC(=O)CS2)no1	-1.5	·
CCOc1ccc(-c2ncnn2-c2sc3c(c2C#N)CCCC3)cc1	-1.4	0.26
CS(=O)(=O)c1ncc(Cl)c(C(=O)Nc2sc3c(c2C#N)CCCC3)n1	-4.4	2.8
O=C(NCCCN1CCCC1=O)c1cc2c(s1)-c1ccc(Cl)cc1S(=O)(=O)C2	-1.9	0.6
CS(=O)(=O)N1N=C(c2ccco2)CC1c1cn(-c2ccccc2)nc1-c1ccccc1 (centres undefined)	-0.25	-6.4
Cc1cc(C)n2nc(CN(C(=O)c3ccco3)c3ccccc3)nc2n1	-2.1	1.4
Cc1ccc2nc3c(cc(C#N)c(=O)n3-c3ccc(C)c(Cl)c3)c(=O)n2c1	0.26	-1.5
COc1ccc(CCn2cnn3c(=O)c4ccccc4nc3c2=O)cc1OC	-0.68	·
O=C(O)CC(CC(=O)N1CCOCC1)c1ccccc1 (centres undefined)	-2.5	·
COc1ccc(-c2cc(C(F)(F)F)n3nc(C(=O)O)cc3n2)cc1	·	1.7
Cc1ccsc1CCNS(=O)(=O)c1ccc2c(c1)NC(=O)CC(C)S2 (centres undefined)	·	-0.64
CN(C)c1nc(C(C)(C)C)cc2c1C(=O)NC2=O	-1.5	·
CC(=O)Oc1ccc2oc(=O)c3c(c2c1)CCCN3C(=O)CN1CCN(c2ncccn2)CC1	-0.28	·
O=C(C1CCN(c2nc3cccnc3s2)CC1)N1CCN(c2ccccc2)CC1	·	-0.86
COc1ccc(OC)c(Nc2ncnc3c2cnn3-c2ccc(F)cc2)c1	·	2.4
CCN1CCN(C(=O)CN2CCSc3ccccc32)CC1	·	1.1
COc1ccc2c(Cl)c(C(=O)O)sc2c1	-1.2	·
CN1CCC=C(Cc2n[nH]c(=O)c3ccccc23)C1	-0.72	1.4
CCCN(CCC)c1nn2c(=O)c(C(=O)NC(C)CC)cnc2s1 (centres undefined)	·	0.27
CCOCCCNc1cc(Br)c2noc3c2c1C(=O)c1ccccc1-3	-2.3	-5.6
CC1=C2C(=NCCN1)C(=O)N(c1ccc(Cl)cc1)C2c1ccccn1 (centres undefined)	0.66	-5.5
CCC(=O)Nc1nnc(SCc2cc(=O)c3cc(C)ccc3[nH]2)s1	·	0.61
CCCN1Cc2cccc(C(=O)NC3CCCCC3)c2C1=O	-0.57	·
CCCn1c2ccccc2c2cnn(CC(=O)N3CCCC(C)C3)c(=O)c21 (centres undefined)	·	2.1
Fc1ccc(N2CCN(c3ccc(Cl)nn3)CC2)cc1	-1.5	1.7
O=c1oc2c3c(ccc2c2ccccc12)OCN(Cc1ccccc1)C3	-0.93	0
Cc1cc(/C(N)=N/OC(=O)c2cccs2)c(-c2ccccc2)o1	-1.2	·
Fc1cc(Br)ccc1Nc1c2c(nc3ncnn13)CCC2	·	1.2
Cc1oc(-c2ccc(Cl)cc2)nc1CSCC(=O)O	·	2.5
COc1ccc(C2CC(=O)C3=C(C2)NC(=O)CC3c2cc(OC)ccc2OC)cc1 (centres undefined)	-1.7	1.3
COc1ccc(NC(=O)CSc2nc3c(c(=O)n2C)SCC3)c(OC)c1	-1.3	2.1
C=CCSc1ncc(Cl)c(C(=O)Nc2c(C(=O)Nc3ccccc3)oc3ccccc23)n1	-1.3	-0.7
O=C(CC1CCCC1)NCCc1cn2ccccc2n1	0.66	·
O=C(NCCN1CCCC1)c1ccc2c(c1)N(Cc1ccc(F)cc1)C(=O)CS2=O (centres undefined)	0.48	·
O=C(NCc1sccc1CSc1ccc(Cl)cc1)Nc1ccccc1F	-0.71	·
Cc1ccnc(NS(=O)(=O)c2ccccc2)c1	-1.8	0.59
CNC(=O)c1ccc(NC(=O)C2=CSCCO2)cc1	·	1.1
CC1=C(C(=O)OC(C)C)C(c2cccnc2)C2=C(CC(c3ccccc3)CC2=O)N1 (centres undefined)	0.76	0.21
O=C(Nc1ccc(-c2nnc(-c3ccco3)o2)cc1)C(c1ccccc1)c1ccccc1	-1.5	·
Cc1ccc2[nH]c3c(c2c1)CCC1C3=NNC1c1ccco1 (centres undefined)	-2.1	·
O=C(Nc1nc2ccc(Br)cc2s1)c1ccc(S(=O)(=O)N2CCCCC2)cc1	-2.2	·
COc1ccc2[nH]c(=O)c(CN(C)S(=O)(=O)c3ccc(C)cc3)cc2c1	-8.6	1.5
CCc1nnc(NC(=O)Nc2ccccc2Cl)s1	1.8	0.96
Cc1nc(NCc2ccc(OC(C)C)cc2)c2sc3nc4c(cc3c2n1)COC(C)(C)C4	·	1.6
c1nc(NCc2ccc3c(c2)OCO3)c2nc3n(c2n1)CCCCC3	·	0.58
CC(C)CCNC(=O)C1CCCN(c2nnc(N3CCCC3=O)s2)C1 (centres undefined)	-0.27	1.7
C=CCOc1ccc(C2c3c(oc4ccccc4c3=O)C(=O)N2Cc2ccc3c(c2)OCO3)cc1 (centres undefined)	1.6	2.3
CCOc1ccc(Nc2c(OCC)c(=O)c2=O)cc1	·	1.3
